Screening results: PubChem, National Center for Advancing Translational Sciences (NCATS)
RE007 growth inh – less growth of the S. pombe RE007 Vpr strain | S. pombe RE007 Vpr strain, BacTiter-Glo ATP luminescence, 24 h; control for the full effect not named in the record | Potency, µM (doses to about 92.2 µM), for inactives: at the top dose activity change, negative = less growth | 360,000 tested, 0.21% active | AID 651644; active = well fitted falling curve with a large enough effect; inconclusive = small, poorly fitted or top-dose-only effect; inactive = no such curve, though single readings can be large or run the other way;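 also: % is scaled to controls: 0 for no effect and ±100 for the full control effect; nearly all actives have a fitted effect of over 50% in size; the assay follows cell death caused by Vpr and the record does not say whether a fall means rescue or toxicity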
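Fission yeast strain RE007, carrying one chromosomally integrated HIV-1 vpr copy, was seeded at OD 0.01 in PMG+AL medium with 23 nL pinned compound. After 24 h at 30 °C and 99% humidity, viability was read by BacTiter-Glo luminescence.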
Cruzain inh Det – cruzain (T. cruzi) inhibition with detergent; AID 1478; 200,000 tested, 0.43% active; Potency, µM, without a hit: max response, negative = inhibition, hits mostly inhibitors; purified cruzain, Z-FR-AMC fluorescence, 0.01% Triton;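 also: plate controls were neutral wells for no effect and buffer without enzyme for full effect; nearly all actives have a fitted effect of over 40% in size; top concentration of the series not given in the record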
Target sequence (P25779 123-467 limits assumed): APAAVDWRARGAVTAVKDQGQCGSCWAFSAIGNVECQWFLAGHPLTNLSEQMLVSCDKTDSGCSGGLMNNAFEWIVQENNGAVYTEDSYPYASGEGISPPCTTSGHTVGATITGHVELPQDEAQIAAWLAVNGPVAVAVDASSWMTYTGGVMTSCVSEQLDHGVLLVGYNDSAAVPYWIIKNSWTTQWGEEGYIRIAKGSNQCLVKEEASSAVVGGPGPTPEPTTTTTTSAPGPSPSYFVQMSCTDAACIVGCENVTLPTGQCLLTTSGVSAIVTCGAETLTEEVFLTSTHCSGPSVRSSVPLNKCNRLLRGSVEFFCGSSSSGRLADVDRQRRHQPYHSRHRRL
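Z-FR-AMC hydrolysis (2 uM substrate) by cruzain (1.5 nM) monitored kinetically at ex 360/em 450 nm after 15 min room-temperature compound exposure; 0.01% Triton X-100, pH 5.5, 5 mM DTT.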
NS1 function inh – blocks influenza NS1 protein function; AID 2326; 270,000 tested, 0.4% active; Potency, µM (series often up to 46.1 µM), inactives show at the top dose activity, positive = more growth; S. cerevisiae slowed by influenza A NS1, growth recovery by OD600; active means well fitted rising curve with a large enough effect; inconclusive means small, poorly fitted or top-dose-only effect; inactive means no such curve, though single readings can be large or run the other way; also: nearly all actives have a fitted effect of over 50% in size
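Recovery from NS1-induced slow growth read by OD600 in budding yeast switched to galactose assay medium (pH 6.0, -URA) at 1:100 dilution. Compound 23 nl per well; the matching strain lacking NS1 serves as control.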
SARS PLpro yeast – inhibitors of SARS-CoV papain-like protease in yeast | S. cerevisiae expressing SARS-CoV PLpro, growth rescue; control for the full effect not named in the record | Potency, µM (titrated, usually from 32.9 µM), for inactives: at the highest dose activity, positive = growth rescue | 330,000 tested, 0.19% active | AID 485353; active means well fitted rising curve with a large enough effect; inconclusive means small, poorly fitted or top-dose-only effect; inactive means no such curve, though single readings can be large or run the other way; also: 0% is about no effect; nearly all actives have a fitted effect of over 55% in size; growth read by luminescence after 48 h
MARV entry inh – Marburg virus entry inhibition; Marburg virus pseudotyped entry inhibition, cell reporter; control for the full effect not named in the record; about a third of the inactives were read at about 46 µM; Potency, µM (highest dose often 37.8 µM), without a hit: at the highest dose activity change, negative = inhibition, actives largely listed as inhibitors; 300,000 tested, 1.8% active; AID 540276; active = well fitted inhibition curve with a large enough effect; inconclusive = small, poorly fitted or top-dose-only effect, or effect the other way; inactive = flat fitted curve, though single readings scatter; tested in HEK293 cells; about a fifth of its hits are not listed in these tables; also: % is scaled to controls: 0 for no effect and ±100 for the full control effect; luciferase read-out
StopGo reporter – FMDV 2A StopGo reporter, luciferase signal; Potency, µM (top dose mostly 57.9 µM), without a hit: at the highest dose signal change, negative = less light; 410,000 tested, 1.2% active; AID 1159524; human cells with a luciferase reporter of 2A StopGo recoding; control for the full effect not named in the record; active = well fitted falling curve with a large enough effect; inconclusive = small, poorly fitted or top-dose-only effect; inactive = no such curve, though single readings can be large or run the other way; tested in HEK293T cells; also: % is scaled to controls: 0 for no effect and ±100 for the full control effect; nearly all actives have a fitted effect of over 45% in size; luciferase light after 4 h
Lassa entry inh – Lassa virus entry inhibition | 300,000 tested, 1.2% active | Potency, µM (series often up to 37.9 µM), for inactives: at the top dose activity change, negative = inhibition, hits mostly inhibitors | Lassa virus pseudotype entry inhibition, cell reporter; control for the full effect not named in the record; active means well fitted inhibition curve with a large enough effect; inconclusive means small, poorly fitted or top-dose-only effect, or effect the other way; inactive means flat fitted curve, though single readings scatter; tested in HEK293 cells; also: % is scaled to controls: 0 for no effect and ±100 for the full control effect; nearly all actives have a fitted effect of over 50% in size; luciferase read-out
Cruzain inh noDet – inhibitors of Trypanosoma cruzi cruzain without detergent; P25779; purified cruzain, Z-FR-AMC fluorescence, no detergent; Potency, µM, without a hit: max response, negative = inhibition, hits mostly inhibitors; 200,000 tested, 2.3% active;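 also: plate controls were enzyme without inhibitor for no effect and buffer without enzyme for full effect; nearly all actives have a fitted effect of over 40% in size; top concentration of the series not given in the record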
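Purified cruzain at 1.5 nM, pre-incubated 15 min with compound at room temperature in 100 mM sodium acetate pH 5.5, 5 mM DTT, 0.00005% Triton X-100. Reaction started with 2 uM Z-FR-AMC; AMC fluorescence increase over 60 s gives rate.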
Numbers without * were called inactive; ? = inconclusive; · = not tested or not shown; [ ] = dose if it differs, or a comment. Unless noted, calls follow the shape of the dose curve; as a rule, active = well fitted curve in the direction sought with a large enough effect; inconclusive = small, poorly fitted or top-dose-only effect, or another doubt; inactive = no such curve, though single readings can be large; an effect the other way counts as inactive or inconclusive. Potency is read from the fitted curve at half-maximal effect. Compounds as they come; overall some 4.5% were active at least once.

SMILES | RE007 growth inh | Cruzain inh Det | NS1 function inh | SARS PLpro yeast | MARV entry inh | StopGo reporter | Lassa entry inh | Cruzain inh noDet
COc1ccc(-c2cc(C(F)(F)F)nc(-n3cncn3)n2)cc1 | -3% | -18% | -50% | 15% | 0% | 2% | -8% | 2%
O=C(/C=C/c1ccc([N+](=O)[O-])cc1)NCCN1C(=O)S/C(=C\c2ccc(F)cc2)C1=O | 2% | · | 0% | 0% | -8% | -2% | 11% | ·
CC(=O)Nc1cc(C(=O)NCCN2CCN(Cc3ccccc3)CC2)ccc1Sc1ccc(C)cc1 | -1% | · | · | -1% | ? | -22% | 12% | ·
COc1ccc(NC(=O)Cn2c(C)cc(=O)c3cccc(OC)c32)cc1 | -6% | 0.3% | -5% | -4% | 24% | -3% | 19% | -9%
Cc1noc(C)c1COC(=O)Cc1ccc(Br)cc1 | 5% | · | · | 6% | -1%[46.1 µM] | -2% | 5% | ·
O=S(=O)(NCc1ccccn1)c1cc(C(F)(F)F)ccc1Cl | -4% | · | -2% | -1% | · | 39%[activator] | · | ·
O=C1CC(N2CCN(c3nc4ccccc4s3)CC2)C(=O)N1c1cccc(F)c1 (stereo not drawn) | -26% | -7.4% | -54% | -1% | 12% | ? | 21% | ?
CC(/C=C1\NC(=S)NC1=O)=C\c1ccccc1 | 11% | · | -11% | 2% | · | 13% | · | ·
O=CN1CCN(c2ncnc3c2nnn3Cc2c(F)cccc2Cl)CC1 | 0% | · | 6% | 1% | ? | -23% | 8% | ·
Cc1ccc(C)c(NC(=O)CN(C)C(=O)CCN2C(=O)c3ccccc3C2=O)c1 | -1% | -4.3% | 18% | 7% | ? | -6% | -5% | -2%
CCCC1C2C(=O)N(c3ccccc3OCC)C(=O)C2ON1c1ccccc1 (stereo not drawn) | -11% | -4.0% | -6% | -11% | -3% | -4% | -1% | 2%
N#Cc1c(NC(=S)NC(=O)Cc2cccs2)sc2c1CCCCC2 | 7% | -0.3% | 17% | 4% | 28% | -9% | -1% | -25%
Cc1cc(C)n(CC(=O)NC2CCCCC2C)c(=O)c1C#N (stereo not drawn) | -21% | · | · | -2% | -1%[46.1 µM] | -21% | -9% | ·
COc1cccc(C(=O)NNC(=O)Cc2csc(N)n2)c1 | -7% | · | · | -1% | -7%[46.1 µM] | 3% | -10% | ·
Cc1ccc2c(C)cccc2c1 | 2% | 0.3% | · | · | · | 0% | · | -14%
CCCCCCn1c(=O)c(C(=O)Nc2nc(CC(=O)OCC)cs2)c(O)c2ccccc21 | 0% | · | 4% | -1% | ? | -8% | ? | ·
COc1ccc(NC(=O)N2CCC3(CC2)OCCO3)cc1OC | 0% | -2.1% | 13% | 17% | 16% | 12% | 19% | 3%
O=C(O)CC(C(=O)O)n1nc(-c2ccccc2)cc1-c1ccccc1 (stereo not drawn) | -11% | 1.7% | -29% | 1% | ? | 69%[activator] | 4% | -3%
O=C(CCNC(=O)c1ccccc1)N/N=C/c1ccc([N+](=O)[O-])cc1 | 3% | · | · | -5% | -7%[46.1 µM] | -2% | -15% | ·
O=C(NCc1ccccn1)c1n[nH]c2ccccc12 | -9% | -3.1% | -20% | -2% | 0% | 24% | 0% | 13%
Cc1ccc(C)c(N(CC(=O)NC2CCCC2)C(=O)c2oc(C(C)(C)C)cc2C)c1 | 2% | -7.5% | -8% | -35% | ? | · | ? | 12%
COc1ccc(C(=O)Cn2nnc(-c3ccccc3NC(=O)C3CCCCC3)n2)cc1 | 23% | 1.6% | 13% | -3% | · | -26% | ? | -24%
CCOC(=O)CN1C(=O)CC(c2ccc([N+](=O)[O-])cc2)C1=O (stereo not drawn) | -3% | · | 26% | -13% | · | 1% | · | ·
COc1cccc(NC(=S)Nc2ccc(Br)cc2Cl)c1 | 4% | · | 0% | -2% | 0%[46.1 µM] | 1% | -10%[46.1 µM] | ·
CCCn1c(=O)c2c(nc3n2CC(C)CN3Cc2ccccc2)n(C)c1=O (stereo not drawn) | 2% | · | -11% | 10% | · | ? | · | ·
Cc1ccc(NC(=O)CC2C(=O)NCCN2C(=O)c2ccc(F)cc2)cc1 (stereo not drawn) | 1% | · | -1% | -2% | 24% | -9% | 8% | ·
COCCNc1nc(N)c([N+](=O)[O-])c(N2CCCCCC2)n1 | 3% | · | -3% | -1% | 5%[46.1 µM] | -23% | 10%[46.1 µM] | ·
CCn1c(CCl)nc2cc(S(=O)(=O)N3CCOCC3)ccc21 | -11% | · | · | -1% | -14% | 28µM* | ? | ·
COc1ccc(C(O)(CCC(C)C)C(CN2CCOCC2)c2ccc(Cl)cc2)cc1 (stereo not drawn) | -7% | · | 2% | -6% | ? | -28% | ? | ·
N#C/C(=C\c1c[nH]c2ccccc12)c1nnc2n1CCCCC2 | 6% | -7.5% | 5% | 0% | -17% | 61%[activator] | 0% | -6%
O=S(=O)(c1ccccc1)c1nc(-c2ccccc2)oc1N1CCOCC1 | -8% | · | 3% | 1% | 18%[46.1 µM] | 29% | -3%[46.1 µM] | ·
S=C1NC2CCCCC2N1 (stereo not drawn) | 4% | · | 1% | 1% | -4%[46.1 µM] | -9% | -4% | ·
CC(C)Oc1ccc(S(=O)(=O)N2CCCCC2)cc1NC(=O)CC1OC(=O)c2ccccc21 (stereo not drawn) | -4% | · | · | -2% | -3%[46.1 µM] | -4% | -16% | ·
O=C1c2ccccc2NC(c2ccc(O)c(O)c2)N1c1ccccc1Cl (stereo not drawn) | 3% | · | 1% | 2% | · | -8% | · | ·
COc1ccc(CC(=O)NCC2CCCN(Cc3ccc(SC)cc3)C2)cc1 (stereo not drawn) | 2% | · | 4% | 2% | · | -6% | · | ·
COc1ccc(OCC(=O)Nc2ccc3c(c2)OCO3)cc1 | -13% | · | -3% | -3% | 12%[46.1 µM] | 61%[activator] | · | ·
O=C(O)c1ccc(S(=O)(=O)NCc2cccnc2)cc1 | 2% | · | 4% | 0% | ? | 5% | 20% | ·
O=c1nc(-c2ccccc2)cc(C(F)(F)F)[nH]1 | 0% | -16% | -13% | 1% | 19% | · | -8% | -2%
Cc1cccc(N(CC(=O)NC(C)(C)C)C(=O)CS(=O)CC(=O)Nc2ccc(F)cc2)c1 (stereo not drawn) | 10% | · | 0% | -1% | ? | 7% | 6%[46.1 µM] | ·
O=C(c1ccc([N+](=O)[O-])cc1[N+](=O)[O-])N1CCc2ccccc21 | -14% | · | 4% | -3% | 0%[46.1 µM] | -9% | 0%[46.1 µM] | ·
Cc1nn(C)cc1/C=C(/C#N)C(N)=O | 3% | -12% | 8% | 13% | 2% | 0% | -10% | -15%
CCC(C)NCC(O)COCc1ccc(Cl)cc1 (stereo not drawn) | 8% | 1.1% | 1% | -5% | -1%[46.1 µM] | -26% | 8% | 0%
NS(=O)(=O)c1ccc(NCC2COc3ccccc3O2)c([N+](=O)[O-])c1 (stereo not drawn) | 1% | · | 7% | 3% | ? | 13% | 2%[46.1 µM] | ·
CC1CCN(C(=O)Cn2cc(C(=O)c3ccco3)c3ccccc32)CC1 | -8% | -5.0% | -10% | 2% | -1% | -18% | -24% | -5%
O=C1CNC(=S)N1CCc1ccccc1Cl | 2% | · | 1% | 2% | 5%[46.1 µM] | -15% | -2%[46.1 µM] | ·
COC(=O)c1cc(S(=O)(=O)NCCCN2CCCC2=O)cn1C | -2% | · | -11% | 0% | · | 5% | · | ·
CCC1CCC(C(=O)NC(CCSC)C(=O)NCCc2ccc(S(N)(=O)=O)cc2)CC1 (stereo not drawn) | 3% | · | -1% | 2% | · | 7% | · | ·
COC(=O)c1cn(NC(=O)c2cccnc2)c(=O)c2ccccc12 | -5% | 3.8% | -1% | -1% | 27% | 13% | 10% | 8%
Cc1ccc(-c2csc(NC(=O)c3ccc4c(=O)n5c(nc4c3)CCCCC5)n2)cc1 | 2% | -5.1% | -2% | ? | ? | 7.9µM* | ? | -5%
O=C(CN1CCC(NC(=O)c2cccc(F)c2)CC1)Nc1ccc(Br)cc1 | -1% | · | -4% | -9% | 9% | ? | 0% | ·
CCc1ccc(N2CC(C(=O)NCCC3=CCCCC3)CC2=O)cc1 (stereo not drawn) | 5% | · | -19% | 6% | · | -5% | · | ·
COc1cc2c(cc1OC)CN(C(=O)c1ccc3[nH]c(C)c(C)c3c1)CC2 | 14% | · | 28% | 1% | · | -21% | · | ·
COc1ccc(Cl)cc1NC(=O)Cn1c(=O)n(CCCC(=O)NCCc2ccc(OC)c(OC)c2)c(=O)c2ccccc21 | · | -5.5% | · | · | ? | -26% | ? | ?
COc1ccc(/C=C2\CCC(C3CCCC3)C2=O)cc1Cn1nc(C)cc1C (stereo not drawn) | -1% | -7.3% | -9% | 29% | -4% | 9% | -1% | -7%
Cc1ccc(-c2nc3cc(NC(=O)c4cc5ccccc5o4)ccc3o2)cc1 | · | 0.9% | · | · | · | -2% | 9%[46.1 µM] | 6%
Cc1ccc(C2(c3noc(CN4CCC(C(=O)N5CCOCC5)CC4)n3)CCCC2)cc1 | 8% | · | -1% | 0% | · | -28% | · | ·
Cc1oc2c(c(C)cc3oc(=O)c(CC(=O)NCCCN4CCCC4=O)c(C)c32)c1C | 8% | · | -1% | 0% | · | -20% | · | ·
Cc1ccc(NC(=O)c2oc3ccc(S(=O)(=O)N4CCC5(CC4)OCCO5)cc3c2C)c(C)c1 | · | -0.6% | · | · | · | ? | -10%[46.1 µM] | ?
COc1ccc(OC)c(S(=O)(=O)NCC(=O)NC2CCCc3ccccc32)c1 (stereo not drawn) | 4% | · | · | -3% | ? | 24% | 9% | ·
COc1ccc(CNC(=O)c2ccc3oc(C(C)C)nc3c2)cc1 | -19% | · | -18% | -5% | -3% | 0% | 5% | ·
CCC(=O)N1CCc2cc(S(=O)(=O)CCC(=O)NCc3ccc(F)cc3)ccc21 | · | -2.1% | · | · | -26%[46.1 µM] | 0% | -15%[46.1 µM] | -3%
